# SARS PLP yeast – blocks SARS-CoV papain-like protease in a yeast assay; S. cerevisiae expressing SARS-CoV PLpro, growth rescue; control for the full effect not named in the record; Potency, µM (titrated, usually from 32.9 µM), inactives show at the highest dose activity, positive = growth rescue; actives 0.19% (n = 330,000); note: 0% is about no effect; nearly all actives have a fitted effect of over 55% in size; growth read by luminescence after 48 h
# Cruzain inh noDet – blocks cruzain activity in detergent-free assay | P25779 | purified cruzain, Z-FR-AMC fluorescence, no detergent | Potency, µM, inactives show max response, negative = inhibition, hits mostly inhibitors | actives 2.3% (n = 200,000) | AID 1476; active = well fitted curve in the direction sought with a large enough effect; inconclusive = small, poorly fitted or top-dose-only effect, or another doubt; inactive = no such curve, though single readings can be large; an effect the other way counts as inactive or inconclusive;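 note: plate controls were enzyme without inhibitor for no effect and buffer without enzyme for full effect; nearly all actives have a fitted effect of over 40% in size; top concentration of the series not given in the record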
# Target sequence (P25779 123-467 limits assumed): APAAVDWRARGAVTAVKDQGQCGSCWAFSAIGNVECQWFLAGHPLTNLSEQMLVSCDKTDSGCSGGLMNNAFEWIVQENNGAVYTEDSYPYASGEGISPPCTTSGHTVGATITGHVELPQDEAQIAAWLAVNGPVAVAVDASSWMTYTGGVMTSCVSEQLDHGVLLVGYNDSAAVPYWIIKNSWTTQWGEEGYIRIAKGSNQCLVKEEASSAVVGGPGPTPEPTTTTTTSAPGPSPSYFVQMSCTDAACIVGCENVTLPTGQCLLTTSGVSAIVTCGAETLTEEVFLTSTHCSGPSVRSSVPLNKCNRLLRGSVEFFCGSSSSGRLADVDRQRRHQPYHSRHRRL
#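 Detergent-free condition (0.00005% Triton X-100) in acetate buffer pH 5.5 with DTT. 1.5 nM enzyme and compound were pre-mixed 15 min, then 2 uM Z-FR-AMC substrate added; reaction progress from fluorescence change between first and third reads (60 s).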
# Lassa entry inh – Lassa virus entry inhibition. actives 1.2% (n = 300,000). AID 540256. Potency, µM (doses to about 37.9 µM), for the others: at the highest dose activity change, negative = inhibition, usual class: inhibitors. Lassa virus pseudotype entry inhibition, cell reporter; control for the full effect not named in the record; active means well fitted inhibition curve with a large enough effect; inconclusive means small, poorly fitted or top-dose-only effect, or effect the other way; inactive means flat fitted curve, though single readings scatter; tested in HEK293 cells; note: % is set by controls: 0 for no effect and ±100 for the full control effect; nearly all actives have a fitted effect of over 50% in size; luciferase read-out
# MARV entry inh – Marburg virus entry inhibition | Marburg virus pseudotyped entry inhibition, cell reporter; control for the full effect not named in the record; about a third of the inactives were read at about 46 µM | Potency, µM (highest dose often 37.8 µM), for the others: top-dose activity change, negative = inhibition, most hits filed as inhibitors | actives 1.8% (n = 300,000); active = well fitted inhibition curve with a large enough effect; inconclusive = small, poorly fitted or top-dose-only effect, or effect the other way; inactive = flat fitted curve, though single readings scatter; tested in HEK293 cells; about a fifth of its hits are not listed in these tables; note: % is set by controls: 0 for no effect and ±100 for the full control effect; luciferase read-out
# RE007 growth inh – less growth of the S. pombe RE007 Vpr strain; AID 651644; Potency, µM (doses to about 92.2 µM), for the others: at the top dose activity change, negative = less growth; S. pombe RE007 Vpr strain, BacTiter-Glo ATP luminescence, 24 h; control for the full effect not named in the record; actives 0.21% (n = 360,000); active = well fitted falling curve with a large enough effect; inconclusive = small, poorly fitted or top-dose-only effect; inactive = no such curve, though single readings can be large or run the other way;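 note: % is set by controls: 0 for no effect and ±100 for the full control effect; nearly all actives have a fitted effect of over 50% in size; the assay follows cell death caused by Vpr and the record does not say whether a fall means rescue or toxicity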
#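 Fission yeast strain RE007, carrying one chromosomally integrated HIV-1 vpr copy, was seeded at OD 0.01 in PMG+AL medium with 23 nL pinned compound. After 24 h at 30 °C and 99% humidity, viability was read by BacTiter-Glo luminescence.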
# StopGo reporter – lowers the luciferase signal of an FMDV 2A StopGo reporter. human cells with a luciferase reporter of 2A StopGo recoding; control for the full effect not named in the record. Potency, µM (series often up to 57.9 µM), for the others: at the highest dose signal change, negative = less light. actives 1.2% (n = 410,000); active = well fitted falling curve with a large enough effect; inconclusive = small, poorly fitted or top-dose-only effect; inactive = no such curve, though single readings can be large or run the other way; tested in HEK293T cells; note: % is set by controls: 0 for no effect and ±100 for the full control effect; nearly all actives have a fitted effect of over 45% in size; luciferase light after 4 h
# NS1 function inh – inhibitors of influenza NS1 protein function; actives 0.4% (n = 270,000); S. cerevisiae slowed by influenza A NS1, growth recovery by OD600; AID 2326; Potency, µM (top dose mostly 46.1 µM), for inactives: at the top dose activity, positive = more growth; note: actives are rising curves; nearly all actives have a fitted effect of over 50% in size
#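 Compounds were scored for reversing the slow growth caused by influenza A NS1 in S. cerevisiae, measured by optical density at 600 nm. Assay medium contained 2% galactose at pH 6.0; NS1-free yeast of the same strain were the positive control.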
# Cruzain Triton – inhibitors of Trypanosoma cruzi cruzain with detergent; AID 1478; P25779; purified cruzain, Z-FR-AMC fluorescence, 0.01% Triton; Potency, µM, for inactives: max response, negative = inhibition, hits mostly inhibitors; actives 0.43% (n = 200,000); active = well fitted curve in the direction sought with a large enough effect; inconclusive = small, poorly fitted or top-dose-only effect, or another doubt; inactive = no such curve, though single readings can be large; an effect the other way counts as inactive or inconclusive;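 note: plate controls were neutral wells for no effect and buffer without enzyme for full effect; nearly all actives have a fitted effect of over 40% in size; top concentration of the series not given in the record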
#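 Steps: dispense cruzain (1.5 nM final) in acetate buffer pH 5.5 with DTT and 0.01% Triton X-100; pin-transfer compounds; incubate 15 min RT; add Z-FR-AMC (2 uM final); read fluorescence every 30 s, using the 60 s intensity change.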
# The depositor's hits bear a star; u = inconclusive; x = no result given; & = joins results of further samples; [ ] = another dose, or the depositor's remark. Unless noted, calls come from the whole dose curve; as a rule, active means well fitted rising curve with a large enough effect; inconclusive means small, poorly fitted or top-dose-only effect; inactive means no such curve, though single readings can be large or run the other way. Potency is the fitted concentration of half-maximal effect.
SMILES,SARS PLP yeast,Cruzain inh noDet,Lassa entry inh,MARV entry inh,RE007 growth inh,StopGo reporter,NS1 function inh,Cruzain Triton
Cc1ccc(C(=O)N(Cc2cccs2)C2CCS(=O)(=O)C2)cc1 (stereo not given),13.9%,x,x,x,8.5%,-19.2%,-3.9%,x
COc1ccc(NC(=O)CC2C(=O)N(C)C(=S)N2CCc2ccc(F)cc2)cc1 (stereo not given),0.7%,x,u,u,-11.9%,0.0%,6.5%,x
O=C(Nc1scc(-c2cccs2)c1C(=O)O)c1cccs1,0.2%,13.5%,-6.6%,-14.0%,-32.5%,19.4%,-160.9%,-5.7%
C=CCn1c(O)c(C(C)=NC2CCN(Cc3ccccc3)CC2)c(=O)[nH]c1=O,-0.7%,x,x,x,-4.2%,-6.0%,-3.6%,x
CCOC(=O)Nc1ccc(NS(=O)(=O)c2ccc(C)cc2)cc1,-4.5%,-13.7%,11.6µM*,-20.4%,2.5%,41.8%[activator],-36.7%,-3.3%
CC(C)CC(=O)Nc1nc2nc(-c3ccccc3)cc(=O)n2[nH]1,x,-13.6%,-1.1%[46.1 µM],18.3%[46.1 µM],x,-7.9%,x,-0.5%
O=c1c2ccccc2nc(/C=C\c2ccc(F)cc2)n1-c1ccccc1F,x,-1.3%,u,x,x,u,x,-0.4%
C[C@H](Cc1ccc2c(c1)OC(C(=O)O)(C(=O)O)O2)NC[C@H](O)c1cccc(Cl)c1,x,8.2%&-1.7%,12.1%,u,x,x,0.4%,-2.1%&-2.6%
O=S(=O)(NCCS(=O)(=O)N1CCN(c2ccccc2)CC1)c1ccc(F)cc1,-0.4%,x,3.5%,4.9%[46.1 µM],-2.5%,-8.4%,x,x
CCCC(=O)Nc1nc(C)c(-c2csc(Nc3cc(OC)ccc3OC)n2)s1,2.7%,-20.9%,x,x,-4.0%,-22.1%,15.9%,-4.1%
Cc1ccc2cccc(SCC(=O)Nc3ccc(F)cc3)c2n1,6.8%,x,u,u,5.5%,0.5%,-1.8%,x
O=C1c2ccccc2C(=O)N1COc1ccc(S(=O)(=O)N2CCOCC2)cc1[N+](=O)[O-],-2.1%,x,-2.9%[46.1 µM],-0.6%[46.1 µM],-3.3%,-4.8%,-35.6%,x
COc1ccc(Cl)cc1NC(=O)C1CCN(C(=O)C2CC(=O)N(c3ccc(C)cc3)C2)CC1 (stereo not given),-16.2%,x,u,-22.2%[46.1 µM],-1.7%,-5.7%,-2.3%,x
CC(=O)N1CCC(C(=O)OCc2ccc(Cl)cc2)(c2ccccc2)CC1,-1.7%,x,u,u,8.8%,-17.6%,2.2%,x
COc1ccc(-n2c(=O)cc(N3CCc4ccccc43)[nH]c2=O)cc1,-15.5%,3.4%,16.4%,4.2%,0.6%,-17.6%,-1.2%,-3.9%
Cc1cc(C(=O)OCC(=O)N2CCc3ccccc32)c(C)o1,-2.5%,-4.1%,u,3.7%,10.7%,51.3%[activator],0.7%,0.0%
COc1ccc(Cn2c(N)c(C(=O)NCc3ccco3)c3nc4ccccc4nc32)cc1OC,-4.7%,u,u,u,-12.2%,u,u,-18.4%
Cc1cc(Cl)ccc1NC(=S)NCc1ccc(F)cc1,13.8%,x,-11.5%,u,-2.1%,20.7%,4.5%,x
CC1(C)Oc2ccc3ccc(=O)oc3c2C(N2CCCCC2)C1O (stereo not given),1.8%,-7.2%,3.7%,-1.2%,5.8%,-15.2%,1.8%,-0.5%
COC1=C(Nc2ccc(OC)cc2)C(=O)c2ccccc2C1=O,x,2.8%,u,0.0%,u,30.7%[activator],1.6%,-8.5%
CC(=O)N/C(=N/c1nc(C)cc(C)n1)Nc1ccc(C)cc1Cl,3.6%,x,-2.4%,-3.5%,-17.7%,7.1%,-0.7%,x
CCC(C)(C)NC(=O)c1ccc2c(c1)N(CC(=O)OC)C(=O)C(C)(C)O2,5.9%,29.8%,-12.5%,u,-20.0%,-13.5%,-1.2%,2.3%
CCOc1ccccc1NC(=O)N1CCc2cc(S(=O)(=O)N3CCC(C)CC3)ccc21,x,18.6%,11.4%[46.1 µM],28.9%[46.1 µM],x,-6.1%,x,-0.6%
Cc1ccc(C(=O)OC(C)C(=O)NC2CCCCC2C)cc1S(=O)(=O)N1CCOCC1 (stereo not given),0.7%,x,-10.5%,-5.5%,-9.7%,-17.4%,-6.3%,x
CCOC(=O)C(O)(NC(=O)c1cccnc1)C(F)(F)F (stereo not given),-0.7%,2.3%,-0.9%,10.9%,16.7%,-25.1%,4.1%,8.2%
O=[N+]([O-])c1cc(Br)c(O)c(C=Nc2ccc(N3CCOCC3)cc2)c1,-3.4%,x,8.6%[46.1 µM],u,-0.7%,-18.4%,x,x
Cc1nnc(SCC(=O)Nc2sc3c(c2C(=O)c2ccccc2)CCCC3)s1,-34.6%,-15.8%,-11.3%,18.0%,2.0%,-9.3%,9.4%,-4.7%
Cc1ccc(Nc2c(-c3ccc(N4CCOCC4)cc3)nc3ncccn23)c(C)c1,-6.0%,u,-3.4%[46.1 µM],u,-6.2%,12.9%&4.8%,-8.9%,-11.2%&-7.2%
CCC(C(=O)Nc1ncc(C)s1)c1ccccc1 (stereo not given),0.1%,x,19.7%[46.1 µM],u,7.6%,-22.5%,-2.8%,x
O=C(c1ccco1)N1CCN(S(=O)(=O)c2ccc([N+](=O)[O-])cc2)CC1,0.3%,x,x,x,0.9%,0.8%,-5.2%,x
CN1CCCCCC1=Nc1ccccc1C#N,2.1%,-4.2%,6.8%,-2.0%,3.2%,-15.2%,-4.4%,4.9%
CCN(CC)CCN=Cc1c(O)n(CCc2ccccc2)c(=O)[nH]c1=O,14.1%,-8.5%,0.3%,6.5%&6.5%,-1.9%,-10.2%,u,-7.0%
O=C(NC1(C(F)(F)F)Oc2ccccc2O1)N1CCCC1,-8.3%,0.6%,u,u,8.3%,-15.7%,-9.8%,5.1%
O=[N+]([O-])c1ccc(N2CCCC2)cc1NC(c1ccccc1)c1ccccc1,5.7%,10µM*,8.8%,5.6%,0.7%,-25.3%,4.9%,6.3%
CC(=O)Nc1ccc(S(=O)(=O)Nc2cc(-c3cn4ccccc4n3)ccc2C)cc1,x,4.9%,u,3.9%[46.1 µM],x,6.3%,x,-2.1%
COc1ccccc1OCC(=O)Nc1nnc(-c2ccco2)s1,11.1%,u,11.0%,u,u,21.0%,-101.4%,1.0%
Cc1cccc(C(=O)NCc2nnc(SCC(=O)NC(C)c3ccccc3)n2C)c1 (stereo not given),-19.5%,-3.2%,-5.5%,15.9%,3.3%,-18.1%,-6.5%,-0.5%
Cc1ccc(S(=O)(=O)c2nnn(CC(=O)Nc3ccccc3C)c2N)cc1,x,-6.4%,14.9%[46.1 µM],2.8%[46.1 µM],x,-2.5%,x,-7.7%
CC(C)(C)c1cc(C(=O)N/N=C/c2ccc(F)cc2)n(-c2ccccc2)n1,3.3%,4.0%,-22.4%,u,20.4%,-6.3%,5.9%,-7.2%
COc1cc(CNCCN(C)C)c(Br)cc1OC1CCCC1,0.3%,x,x,x,-2.7%,-15.6%,2.0%,x
Cc1ccc(S(=O)(=O)N2CCN(CC3CC4C=CC3C4)CC2)cc1 (stereo not given),-2.2%,x,u,-24.0%[46.1 µM],-9.3%,-22.4%,10.2%,x
Cc1cc(NC(=O)c2ccc(S(=O)(=O)N3CCc4ccccc43)cc2)no1,-0.1%,x,u,18.2%,6.5%,u,x,x
COc1ccc(NC(=O)COC(=O)c2c3c(nc4ccccc24)CCCC3)cc1Cl,-18.1%,u,u,u,-21.3%,u,-49.0%,-5.5%
COc1ccc(C2C(C#N)=C(N)N(N(C)C)C3=C2C(=O)CC(C)(C)C3)cc1OC (stereo not given),-1.4%,x,3.1%[46.1 µM],-14.1%[46.1 µM],6.8%,0.3%,0.1%,x
CC(C)C(C(=O)NC(C)(C)C)N(CCN1CCOCC1)C(=O)CNS(=O)(=O)c1ccccc1 (stereo not given),16.3%,x,12.8%,-20.8%[46.1 µM],-12.9%,20.6%,-0.5%,x
O=C(NCC1CCCO1)c1ccc(COc2ccccc2)cc1 (stereo not given),-3.3%,x,-7.3%[46.1 µM],29.7%[46.1 µM],0.6%,11.8%,10.7%,x
Cc1cc(=O)[nH]c(CN2CCC(c3ccccc3)CC2)n1,1.0%,x,-4.9%,-4.7%[46.1 µM],-3.7%,-8.3%,-0.8%,x
COc1ccc(/C=C/C(=O)C2C(=O)C=C(C)OC2=O)cc1O (stereo not given),-35.5%,0.7%,-3.1%,-21.2%,-22.3%,-9.2%,-1.2%,-5.4%
COc1ccccc1C(C)NC(=O)c1ccccc1SCC(=O)N1CCCC1 (stereo not given),-2.6%,x,1.2%,4.0%,6.4%,-3.6%,x,x
Cc1ccc(Cl)cc1N1CCN(C(=O)c2cnc3c(-c4ccc(F)cc4)c(C)nn3c2C)CC1,x,-13.2%,-9.9%[46.1 µM],x,x,u,x,-1.3%

# Further structures follow.
SMILES,SARS PLP yeast,Cruzain inh noDet,Lassa entry inh,MARV entry inh,RE007 growth inh,StopGo reporter,NS1 function inh,Cruzain Triton
CCn1ncc(Br)c1C(=O)Nc1cccc(F)c1,-0.6%,x,-3.8%[46.1 µM],2.2%[46.1 µM],u,-26.5%,x,x
Cc1ccc(CC(=O)NCCCc2ccccc2)cc1,9.6%,-8.3%,-10.9%,13.0%,0.4%,28.6%,-7.2%,-0.4%
COc1ccc(C(=O)CSc2ncnc3nc[nH]c23)cc1,0.6%,x,-28.8%,2.0%[14.2 µM],-24.5%,-22.6%,4.8%,x
Cc1noc(C)c1CSc1nnc2n(-c3ccccc3)c(=O)c3ccccc3n12,x,x,3.1%,-4.4%[46.1 µM],9.8%,0.0%,-8.2%,x
O=C1CCCC2=C1C(c1ccc(OS(=O)(=O)c3ccc(Cl)cc3)cc1)C1=C(CCCC1=O)O2,-3.9%,-12.1%,-23.8%,-20.7%,2.9%,-22.1%,8.2%,-0.2%
CCN(CC)C(=O)C(=O)c1cccn1-c1cccc(OC)c1C#N,-1.3%,x,x,x,1.1%,-12.4%,2.4%,x
Cc1ccccc1CNC(=O)C1CCCN(S(=O)(=O)N(C)c2ccc(F)cc2)C1 (stereo not given),x,7.1%,-13.5%[46.1 µM],x,x,u,x,-2.4%

# Compound activity from PubChem BioAssay.
